Ecoli growth = E. coli growth inhibition | Escherichia coli growth, OD600, 23 h; active compounds read low | OD600 absorbance (no concentration beside the values) | 0.21% of 330,000 active;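 active = OD600 absorbance below the run mean of sample wells minus 3.6 SD, in any replicate, cut at about 0.56 in these data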;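 note: stock transfer was 300 nL into about 60 µL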
Vif TR-FRET = HIV-1 Vif–A3G interaction blockers – biochemical, TR-FRET, GST-Vif 1-94, biotin-A3G peptide, dose response retest, primary screen (AID 1117319); TR-FRET GST-Vif / biotin-A3G peptide binding; higher % means a stronger effect; test concentration not given here; strong numbers were not always called active; one-dose inhibition, %; IC50 in µM for titrated hits; 0.57% of 260,000 active;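 active = above the screen mean plus three standard deviations and confirmed in dose response; inconclusive = results disagree or hit not tested in dose response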;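 note: Vif residues 1-94 fused to GST binding biotinylated APOBEC3G peptide 110-148; 0% = full assay without inhibitor and 100% = GST in place of GST-Vif; retest series ran down from 100 µM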
AF4-AF9 inh = blocks AF4 peptide binding to human AF9; 0.47% of 350,000 active; AID 651704; inhibition, % at 10 µM; P42568; AlphaScreen, biotin-AF4 peptide binding to FLAG-AF9;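 active = every replicate reaching a set inhibition limit, whatever the replicate mean, cut at about 25% in these data; inconclusive = mean inhibition reaches that limit but some replicates miss it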;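 note: 0% = plate neutral control median and 100% = total signal loss; the record names both 10 and 1 µM as test concentration; the first replicate is given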
Target sequence (P42568 whole entry, looked up): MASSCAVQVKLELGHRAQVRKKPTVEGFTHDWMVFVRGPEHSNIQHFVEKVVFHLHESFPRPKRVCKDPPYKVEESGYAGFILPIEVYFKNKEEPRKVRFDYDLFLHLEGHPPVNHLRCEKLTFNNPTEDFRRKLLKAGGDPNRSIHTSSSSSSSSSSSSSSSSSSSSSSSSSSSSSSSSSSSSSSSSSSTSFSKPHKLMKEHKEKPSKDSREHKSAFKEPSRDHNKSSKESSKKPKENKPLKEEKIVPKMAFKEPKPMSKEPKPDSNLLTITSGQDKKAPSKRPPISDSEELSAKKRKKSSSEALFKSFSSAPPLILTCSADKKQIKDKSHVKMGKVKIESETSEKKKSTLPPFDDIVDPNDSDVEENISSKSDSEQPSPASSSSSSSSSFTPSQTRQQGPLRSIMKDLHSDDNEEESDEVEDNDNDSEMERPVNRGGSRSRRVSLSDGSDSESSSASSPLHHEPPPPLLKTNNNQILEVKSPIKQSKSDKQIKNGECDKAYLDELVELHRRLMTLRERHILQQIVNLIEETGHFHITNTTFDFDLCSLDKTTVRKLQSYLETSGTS
rRNA inh HTS = inhibits bacterial ribosomal RNA function over humanized ribosomes; E. coli WT GFP vs humanized-ribosome RFP mutants, fluorescence, 24 h; active compounds read low; DMSO median 0, no signal -100; AID 720706; 1.6% of 350,000 active; GFP signal change (wild-type ribosome), % (no concentration beside the values);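 active = significant combined selectivity score with lowered wild-type GFP, culture density cut under 30%, mutant RFP and density less affected; inactive = any of these conditions unmet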; note: one replicate is shown; some compounds called inactive have numbers as strong as hits
FGF22 binding = binders of recombinant human FGF22 by thermal shift. Q9HCT0. SYPRO orange fluorescence; percent of sucrose octasulfate shift, DMSO zero. calls only at 9.99 µM. 1.5% of 340,000 active. AID 651658;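 active = melting point raised past a set limit in the mean and every replicate; inconclusive = no clear call; three in four hits are not shown here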
Target sequence (Q9HCT0 whole entry, looked up): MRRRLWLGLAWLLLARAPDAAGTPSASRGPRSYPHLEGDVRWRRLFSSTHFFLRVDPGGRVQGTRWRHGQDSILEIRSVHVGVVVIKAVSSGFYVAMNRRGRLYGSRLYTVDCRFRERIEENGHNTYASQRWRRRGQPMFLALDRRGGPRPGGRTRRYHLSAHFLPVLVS
ALR inh = inhibitors of human sulfhydryl oxidase ALR; purified ALR, DTT oxidation, H2O2 HRP-luminol luminescence; AID 485317; 3.8% of 290,000 active; P55789; inhibition, % (test concentration not listed);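 active = mean and each replicate at 75% or more; inconclusive = only one of the two met; inactive = neither met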;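 note: stock transfer was 7.5 nL into about 7.5 µL; 0% = neutral wells and 100% = wells with inactivated enzyme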
Target sequence (P55789 whole entry, looked up): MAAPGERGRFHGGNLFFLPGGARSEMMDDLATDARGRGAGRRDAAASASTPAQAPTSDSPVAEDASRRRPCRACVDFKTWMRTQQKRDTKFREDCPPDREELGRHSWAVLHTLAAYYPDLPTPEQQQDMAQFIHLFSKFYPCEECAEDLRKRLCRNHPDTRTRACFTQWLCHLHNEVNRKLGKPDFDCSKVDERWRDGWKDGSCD
HNF4A DNA FP = change in binding of human HNF4 alpha to DNA; P41235; HNF4a-FITC DNA binding, fluorescence polarization, 1 h; activity change, % at 10 µM; 0.3% of 360,000 active; AID 1224865; in the data active = activity change above about 30%, passing the limit was not always enough;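 note: controls were the assay level and a saturating level of protein; the project sought stronger binding though the title names inhibitors; some compounds called inactive have numbers as strong as hits; positive values seem to mean higher polarization but the record does not say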
rRNA inh HTS OD600 = recorded beside rRNA inh HTS, whose call it bears; OD600 change, %; measured here: OD600 growth;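 optical density of the mix in the first replicate; 0 = DMSO median and -100 = no signal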
rRNA inh HTS RFP = further read-out of rRNA inh HTS, marked with its call; RFP signal change, %; measured here: RFP humanized mutant strains;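 first replicate; 0 = DMSO median and -100 = no signal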
* marks the source's active call; other numbers are inactive results; i = inactive; ? = inconclusive; . = not tested or not shown; & = joins results of further samples.

Abbreviations: A = Ecoli growth; B = Vif TR-FRET; C = AF4-AF9 inh; D = rRNA inh HTS; E = rRNA inh HTS OD600; F = rRNA inh HTS RFP; G = FGF22 binding; H = ALR inh; I = HNF4A DNA FP
1: Cc1ccc(C(=O)NCC(=O)OCC(=O)N(CC(C)C)c2c(N)n(Cc3ccccc3)c(=O)[nH]c2=O)cc1
  A = 0.68; B = -6%; C = -2.5; D = 4; E = -3; F = 0.6; G = .; H = .; I = 1.5
2: Cc1c(NC(=O)CCN2C(=O)c3ccccc3C2=O)c(=O)n(-c2ccccc2)n1C
  A = 0.68; B = 5%; C = .; D = .; E = .; F = .; G = .; H = -5; I = 1.5
3: COCCNCC(=O)Nc1nc(C)cs1
  A = 0.67; B = .; C = 0.3; D = 17; E = 20; F = 6.1; G = i; H = .; I = 2.6
4: COc1ccc2cc(C(C)C(=O)NC3CCC(O)CC3)ccc2c1 (centres undefined)
  A = 0.64; B = .; C = -1.5; D = 1; E = 3; F = -0.6; G = i; H = .; I = 0.5
5: C[C@@H]1CN([C@@H](C)CO)C(=O)c2cc(-c3cccnc3)cnc2O[C@@H]1CN(C)C(=O)C1CCOCC1
  A = .; B = .; C = 0.0; D = 4; E = -4; F = -5.5; G = i; H = .; I = .
6: C[C@H]1CN([C@@H](C)CO)S(=O)(=O)c2ccc(C#Cc3ccncc3)cc2O[C@@H]1CN(C)S(=O)(=O)c1ccc(F)cc1
  A = .; B = .; C = -1.1; D = 0; E = 3; F = 8.4; G = i; H = .; I = .
7: Nc1ccc(C(=O)C(=O)c2ccc(N)cc2)cc1
  A = .; B = -5%; C = 3.9; D = 0; E = 10; F = 0.9; G = i; H = -19; I = 1.3
8: CC(C)(C)NC(=O)CN(C(=O)Cn1nnc(-c2ccccc2F)n1)c1cccc2c1CCCC2
  A = 0.69; B = ?; C = .; D = .; E = .; F = .; G = .; H = -2; I = -1.4
9: O=C(NC1CCCCC1)C(c1ccc(Cl)cc1)N(C(=O)c1cnccn1)c1ccc2c(c1)OCO2 (centres undefined)
  A = 0.71; B = 1%&-10%; C = .; D = .; E = .; F = .; G = .; H = -15; I = -2.4
10: COc1ccccc1CNc1cc(C)ccc1C
  A = 0.73; B = -1%; C = 0.4; D = 9; E = -4; F = -7.3; G = i; H = 83*; I = -8.0
11: CSc1ncccc1C(=O)OCC(=O)Nc1ccc(N2CCOCC2)cc1
  A = 0.65; B = -8%; C = -24; D = -3; E = -13; F = 0.3; G = i; H = -3; I = -2.0
12: O=C(O)CN(Cc1ccccc1)S(=O)(=O)c1ccc(F)cc1
  A = 0.74; B = 4%; C = .; D = .; E = .; F = .; G = .; H = -4; I = -1.6
13: C[C@H]1CN([C@@H](C)CO)S(=O)(=O)c2ccc(-c3ccc(C(=O)N(C)C)cc3)cc2O[C@@H]1CN(C)C(=O)Cc1ccccn1
  A = .; B = .; C = -6.6; D = 2; E = 4; F = -1.5; G = i; H = .; I = .
14: C[C@H]1CN([C@@H](C)CO)C(=O)c2cc(NC(=O)C3CC3)ccc2O[C@H]1CN(C)Cc1ccc2c(c1)OCO2
  A = .; B = .; C = -1.4; D = 1; E = 6; F = -2.8; G = i; H = .; I = .
15: COC(=O)CCC(=O)Nc1cc(Cl)cc(Cl)c1
  A = 0.65; B = -9%; C = -2.4; D = 15; E = -4; F = 3.8; G = i; H = -6; I = 2.1
16: CCN1CCCC(OC(=O)Nc2ccccc2)C1 (centres undefined)
  A = 0.73; B = -1%; C = .; D = .; E = .; F = .; G = .; H = 8; I = 1.3
17: C[C@H]1CN([C@@H](C)CO)C(=O)c2cc(C#CCN(C)C)cnc2O[C@@H]1CN(C)Cc1ccccc1
  A = .; B = .; C = 0.4; D = 6; E = 6; F = -2.1; G = i; H = .; I = .
18: CC(C)(C)OC(=O)NC(CCNC=C1C(=O)OC(C)(C)OC1=O)C(=O)O (centres undefined)
  A = 0.7; B = 74%; C = -0.6; D = 15; E = 5; F = 0.1; G = i; H = -4; I = 2.1
19: C[C@@H]1CN([C@H](C)CO)C(=O)c2cc(NS(=O)(=O)c3ccc(F)cc3)ccc2O[C@@H]1CN(C)Cc1ccc(C(F)(F)F)cc1
  A = .; B = .; C = -1.1; D = -5; E = -43; F = 5.8; G = i; H = .; I = .
20: CCOc1ccccc1OCC(=O)O
  A = 0.69; B = 3%; C = .; D = .; E = .; F = .; G = .; H = -3; I = 2.9

Single records (already shown). Order of screens: Ecoli growth, Vif TR-FRET, AF4-AF9 inh, rRNA inh HTS, rRNA inh HTS OD600, rRNA inh HTS RFP, FGF22 binding, ALR inh, HNF4A DNA FP
`COc1ccccc1CNc1cc(C)ccc1C` in the list: 0.73, -1%, 0.4, 9, -4, -7.3, i, 83*, -8.0
`C[C@H]1CN([C@@H](C)CO)S(=O)(=O)c2ccc(-c3ccc(C(=O)N(C)C)cc3)cc2O[C@@H]1CN(C)C(=O)Cc1ccccn1` in the list: ., ., -6.6, 2, 4, -1.5, i, ., .

Going on with the list:
Abbreviations: A = Ecoli growth; B = Vif TR-FRET; C = AF4-AF9 inh; D = rRNA inh HTS; E = rRNA inh HTS OD600; F = rRNA inh HTS RFP; G = FGF22 binding; H = ALR inh; I = HNF4A DNA FP
21: Cc1noc(C)c1S(=O)(=O)Nc1ccc2c(c1)C(=O)N([C@@H](C)CO)C[C@H](C)[C@@H](CN(C)Cc1ccccc1)O2
  A = .; B = .; C = 1.0; D = 0; E = -3; F = -1.0; G = i; H = .; I = .
22: CC(C)c1nnc(NC(=O)CCC(=O)Nc2ccc(Cl)cc2)s1
  A = 0.67; B = 4%; C = -2.1; D = 7; E = 9; F = -1.0; G = i; H = -1; I = -2.0
23: CNC[C@@H]1OCCCC[C@@H](C)Oc2ccc(NS(=O)(=O)c3ccc(C)cc3)cc2C(=O)N([C@@H](C)CO)C[C@@H]1C
  A = .; B = .; C = -7.2; D = 2; E = 5; F = -2.6; G = i; H = .; I = .
24: CC(C)CNC(=O)C1(C)CCCCCN1C(=O)c1cc(C#N)cs1 (centres undefined)
  A = .; B = .; C = 1.3; D = 4; E = 9; F = -2.5; G = i; H = .; I = -0.7
25: O=C(CSc1nnc(Cc2cc(=O)[nH]c(=O)[nH]2)n1-c1ccccc1)N1CCCC1
  A = 0.69; B = 3%; C = .; D = .; E = .; F = .; G = .; H = -9; I = -9.1
26: CCOc1ccc2nc(SCC(=O)N3c4ccccc4Sc4ccccc43)sc2c1
  A = 0.73; B = 6%; C = .; D = .; E = .; F = .; G = .; H = -1; I = 5.1
27: Brc1ccccc1CN1CCN(Cc2c[nH]c3ccccc23)CC1
  A = 0.61; B = .; C = 14; D = -23*; E = -18*; F = 4.1*; G = i; H = -6; I = .
28: Cc1cccc(C(=O)Oc2c(Br)cc(Br)cc2/C=N/NC(=O)c2ccncc2)c1
  A = .; B = -4%; C = 3.2; D = -4; E = 4; F = -9.8; G = i; H = -5; I = 1.1
29: CCCOc1ccc(/C=N/NC(=O)c2ccc3c(c2)OCO3)c(OCCC)c1
  A = .; B = .; C = -5.7; D = 2; E = 1; F = -1.4; G = i; H = -5; I = 3.1
30: COc1ccc(-c2cc(C(F)(F)F)nc(SCC(=O)Nc3ccc4c(c3)OCO4)n2)cc1OC
  A = 0.71; B = 12%; C = -0.6; D = 3; E = 5; F = 2.4; G = i; H = .; I = -1.9
31: CCOC(=O)N1CCN(c2cc(NCCO)c([N+](=O)[O-])c3nonc23)CC1
  A = 0.73; B = -7%; C = 0.1; D = 5; E = 10; F = -1.5; G = i; H = .; I = 0.6
32: C[C@@H]1CN([C@@H](C)CO)C(=O)c2cc(-c3cccc(C(=O)N(C)C)c3)cnc2O[C@H]1CN(C)S(=O)(=O)c1ccccc1
  A = .; B = .; C = -0.9; D = -8; E = 1; F = -3.0; G = i; H = .; I = .
33: C/C(CC(=O)Nc1cccnc1)=N\NC(=O)C(C)Oc1ccc(Cl)cc1Cl (centres undefined)
  A = .; B = 12%; C = -4.8; D = -6; E = -12; F = 6.3; G = i; H = 17; I = 2.0
34: CC(C)C[C@H]1CN(CCCC[C@H]2CNC(=O)C(=O)N2CC2CCCCC2)C(=O)C(=O)N1Cc1ccccc1
  A = .; B = .; C = 27*; D = -26; E = -30; F = 3.0; G = i; H = .; I = -2.8
35: CC(C)CCN1CCN(Cc2ccc(N3CCNC3=O)cc2)CC1CCO (centres undefined)
  A = 0.7; B = ?; C = -4.7; D = 9; E = 4; F = -5.6; G = i; H = .; I = 0.5
36: CCCCCCCCNC(=O)c1cnsn1
  A = 0.67; B = .; C = -0.2; D = -16; E = -22; F = -3.9; G = i; H = 2; I = -3.5
37: O=C(NNC(=O)c1ccccc1[N+](=O)[O-])c1ccc(NS(=O)(=O)c2cccs2)cc1
  A = 0.66; B = 0%; C = -1.5; D = -2; E = 0; F = 1.7; G = i; H = 1; I = 0.0
38: CCOC(=O)Cn1c(=O)oc2cc(S(=O)(=O)NCC3CCCO3)ccc21 (centres undefined)
  A = 0.65; B = -3%; C = 7.5; D = 6; E = 4; F = -1.3; G = i; H = -2; I = 4.9
39: COc1ccccc1NC(=O)c1cccnc1
  A = 0.69; B = 1%; C = .; D = .; E = .; F = .; G = .; H = -3; I = 1.2
40: O=S1(=O)N=C(Nc2ccc(O)c(CN3CCCCC3)c2)c2ccccc21
  A = 0.67; B = 3%; C = .; D = .; E = .; F = .; G = .; H = 43; I = 1.6
41: CNC[C@@H]1Oc2ccc(NC(=O)Nc3cccc4ccccc34)cc2C(=O)N([C@H](C)CO)C[C@H]1C
  A = .; B = .; C = 1.0; D = 6; E = 16; F = -0.2; G = i; H = .; I = .
42: COc1ccc(NC(=O)CSc2n[nH]c(-c3ccncc3)n2)cc1Cl
  A = 0.65; B = -2%; C = -0.4; D = -9; E = -18; F = 3.6; G = i; H = .; I = 0.1
43: Cc1cc(C)c(S(=O)(=O)c2ccccc2)c(OC(=O)c2c(F)cccc2F)n1
  A = 0.71; B = 7%; C = .; D = .; E = .; F = .; G = .; H = 0; I = 0.9
44: CN(CC(=O)Nc1cccc(F)c1)C(=O)c1ccc(C2SCCS2)cc1
  A = 0.62; B = .; C = -23; D = 9; E = 10; F = 0.8; G = i; H = -6; I = 0.0
45: CCS(=O)(=O)NCC[C@H]1CC[C@H](NS(=O)(=O)c2ccccc2C)[C@H](CO)O1
  A = .; B = .; C = -1.2; D = -2; E = -2; F = -0.2; G = i; H = .; I = .
46: COc1ccccc1-c1cc2nc(C)cc(C)n2n1
  A = 0.72; B = .; C = -1.4; D = 5; E = 7; F = 1.7; G = i; H = -3; I = -0.9
47: Cc1ccccc1NC(=O)C1CCN(C(=O)N2CCOc3ccccc32)CC1
  A = 0.78; B = .; C = -3.7; D = 3; E = 1; F = 2.0; G = i; H = -2; I = -1.5
48: C[C@H]1CN([C@@H](C)CO)C(=O)c2cc(NC(=O)CCCCCC(=O)Nc3ccccc3N)ccc2O[C@H]1CN(C)S(=O)(=O)c1ccc(Cl)cc1
  A = .; B = .; C = -2.2; D = -1; E = 8; F = 0.9; G = i; H = .; I = .
49: CCCN1C(C)C(C(=O)OCC)=CN(Cc2ccc(Br)cc2)S1(=O)=O (centres undefined)
  A = 0.73; B = -4%; C = -0.5; D = -4; E = 2; F = 2.4; G = i; H = .; I = -2.5
50: O=C(Nc1cccc(C(=O)O)c1)/C(=C\c1ccc2c(c1)OCO2)NC(=O)c1ccco1
  A = 0.72; B = -4%; C = -1.5; D = 14; E = 17; F = -3.4; G = .; H = -2; I = -4.2

This is a subset (hit frequency here may not be typical).
